miR-21 reporter: raises the signal of a miR-21 reporter; Potency, µM (series often up to 38.3 µM), without a hit: top-dose reporter change, positive = more light; 340,000 tested, under 10 active; HeLa miR-21 FLuc reporter, luciferase, 48 h; AID 2288; active = well fitted rising curve with a large enough effect; inconclusive = small, poorly fitted or top-dose-only effect; inactive = no such curve, though single readings can be large or run the other way;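 note: % of control where 0% means no effect; miR-21 action dims this reporter so a rising signal means less miR-21 action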
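HeLa cells endogenously expressing miR-21, stably carrying CMV-driven firefly luciferase with a downstream miR-21 binding site, 2000 cells/well. Titrations up to approximately 40 uM, 48 hours; luciferase luminescence read.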
An asterisk follows results filed as active; ? = inconclusive; [ ] = another dose, or the depositor's remark.

| no. | miR-21 reporter | compound |
| --- | --- | --- |
| 1 | 5.4% | CC(C)COc1ccc(C(=O)N(Cc2ccc(N(C)C)cc2)Cc2ccco2)cc1 |
| 2 | ? | CCOC(=O)c1cccc(NS(=O)(=O)c2cc(Br)cc3c2N(C(=O)C2CC2)CC3)c1 |
| 3 | -0.4% | CCc1ccc(CN(Cc2ccco2)c2cnc(S(C)(=O)=O)nc2C(=O)Nc2ccccc2Cl)cc1 |
| 4 | -3.2% | COC(=O)c1sccc1S(=O)(=O)N(CC(=O)NCc1ccc(F)cc1)c1ccc(C)c(C)c1 |
| 5 | 27.6% | CCCCOC(=O)CSc1nnc(-c2ccc(C)cc2)o1 |
| 6 | 5.3% | CCOc1cc(-c2ccc(OC(=O)c3ccccc3F)cc2)cc(=O)c2c(C)oc(C)c12 |
| 7 | -47.7% | O=C(CSc1ccc2nc(-c3ccccc3)cn2n1)Nc1ccccc1 |
| 8 | 21.0% | CCOC(=O)c1c(C)oc2ncnc(NCCCN3CCN(c4cc(C)ccc4C)CC3)c12 |
| 9 | ? | COc1ccc(CNC(=O)CCC(=O)N2CC3CCCN3c3ccccc32)cc1 (stereo not drawn) |
| 10 | -0.9% | O=c1cc(N2CCN(c3ccc(F)cc3)CC2)[nH]c(=O)n1-c1ccc(Br)cc1 |
| 11 | -2.0% | Cc1ccc(CCNC(=O)c2ccc3c(Cl)c4c(nc3c2)CCCC4)cc1 |
| 12 | 22.3% | O=C(NCCc1nc2ccccc2n1Cc1c(F)cccc1Cl)c1ccco1 |
| 13 | 19.8% | CCc1ccc(CNC(=O)Cc2ccc(NC(=O)N3CCSc4ncccc43)cc2)cc1 |
| 14 | 9.9% | O=C(NCCc1ccc(Cl)cc1)c1ccc2c(c1)N(Cc1cccc(Cl)c1)C(=O)c1ccccc1S2(=O)=O |
| 15 | 5.7% | CCOc1ccc(NC(=O)CC2C(=O)N(c3cccc(C)c3)C(=O)N2Cc2cccnc2)cc1 (stereo not drawn) |
| 16 | -0.3% | Cc1ccc(-c2noc(CCC(=O)N(C)c3ccccc3F)n2)cc1 |
| 17 | -14.9% | Cc1ccc(-c2cc(C(=O)Oc3ccc(C#N)cc3)no2)cc1 |
| 18 | 14.0% | COc1cc(/C=C/c2nc(C#N)c(N3CCCCCC3)o2)cc(OC)c1OC |
| 19 | -7.8% | CCOC(=O)C1CCCN(C(=O)c2ccc3c(c2)sc2nc(-c4cccc(OC)c4)cn23)C1 (stereo not drawn) |
| 20 | 4.8% | Cc1ccc(C)c(N2CCN(S(=O)(=O)c3ccc(F)c(C(=O)Nc4ccc(Cl)cc4Cl)c3)CC2)c1 |
| 21 | 4.9% | COc1ccc(NC(=O)C(=O)c2cc(C)n(-c3ccc(C)cc3)c2C)cc1Cl |
| 22 | -3.5% | O=C(Cn1c(=O)nc(-c2ccccc2)c2ccccc21)NCc1ccc(F)cc1 |
| 23 | -14.2% | COc1ccc(OC)c(NC(=O)Cc2c(C(=O)O)[nH]c3ccc(Cl)cc23)c1 |
| 24 | -8.6% | COC(=O)c1ccc(NC(=O)c2cccc3c2C(=O)N(C2CCCCC2)C3)cc1 |
| 25 | -2.6% | CCCOc1ccc(CNC(=O)Cn2ncn3c(cc4sc(CC)cc43)c2=O)cc1 |

Single entries from the results shown.
no. 7 | miR-21 reporter: -47.7%
no. 24 | miR-21 reporter: -8.6%

Some of the entries so far, in markdown.
| # | Structure | miR-21 reporter |
| --- | --- | --- |
| 2 | CCOC(=O)c1cccc(NS(=O)(=O)c2cc(Br)cc3c2N(C(=O)C2CC2)CC3)c1 | ? |
| 1 | CC(C)COc1ccc(C(=O)N(Cc2ccc(N(C)C)cc2)Cc2ccco2)cc1 | 5.4% |
| 14 | O=C(NCCc1ccc(Cl)cc1)c1ccc2c(c1)N(Cc1cccc(Cl)c1)C(=O)c1ccccc1S2(=O)=O | 9.9% |

Continuation:
| no. | miR-21 reporter | compound |
| --- | --- | --- |
| 26 | 16.4% | COc1ccc(NC(=O)c2noc3c2CSc2ccccc2-3)cc1Cl |
| 27 | -2.8% | COc1ccccc1N1CCN(c2ncnc3c2nnn3C)CC1 |
| 28 | 0.3% | COC(=O)c1scc(-c2ccc(C)cc2)c1S(=O)(=O)Nc1cc(C)ccc1OC |
| 29 | 7.6% | Cc1oc2c(cc(NS(=O)(=O)c3ccc(Cl)cc3)c3ccccc32)c1C(=O)OCc1ccccc1 |
| 30 | -7.1% | Cc1ccc2[nH]c(CSc3nnc(NC(=O)COc4ccc(F)cc4)s3)cc(=O)c2c1 |
| 31 | -2.1% | CC(=O)N1CCc2c(sc3c2c(=O)n(-c2ccc(F)cc2)c(=O)n3Cc2ccc(C#N)cc2)C1 |
| 32 | ? | O=C(O)c1c(-c2ccccc2)oc2ccc(OCc3ccc(Cl)c(Cl)c3)cc12 |
| 33 | ? | CCS(=O)(=O)c1ncc(Cl)c(C(=O)NCc2ccccc2)n1 |
| 34 | -0.3% | COC(=O)c1ccc2c(=O)n(CCCCCC(=O)NCCc3ccc(Cl)cc3)c(=O)[nH]c2c1 |
| 35 | -5.1% | Cc1nn(CCC(=O)Nc2ccccc2Br)c(=O)c2nn(-c3ccccc3)c(C)c12 |
| 36 | -0.1% | COc1ccc(N2CC(NC(=O)C3CCCC3)CC2=O)cc1OC (stereo not drawn) |
| 37 | -4.2% | Cc1ccc(NC(=O)CSc2nncn3c2cc2sccc23)cc1F |
| 38 | -35.2% | COc1ccc(S(=O)(=O)Nc2cccc(-c3ccc(N4CCCCC4)nn3)c2)cc1F |
| 39 | -51.3% | COc1ccc(OCC(=O)Nc2ccc(-c3nc4cc(C)cc(C)c4o3)cc2)cc1 |
| 40 | 9.3% | COc1ccc(NC(=O)C(NC(=O)/C=C\c2ccc3c(c2)OCO3)c2ccc(OC)cc2)cc1 (stereo not drawn) |
| 41 | -4.8% | O=c1c2sc3ccccc3c2n(Cc2cccc(C(F)(F)F)c2)c(=O)n1Cc1ccccc1 |
| 42 | -2.3% | COc1ccc(-c2nc(C)c(CCNC(=O)C(=O)Nc3cc(C)cc(C)c3)s2)cc1OC |
| 43 | 28.3% | N#Cc1ccc(C(=O)N2CCN(c3nc4ccc(F)cc4s3)CC2)cc1 |
| 44 | 3.6% | Cc1ccccc1NC(=O)c1sc2nc(N3CCOCC3)c3c(c2c1N)CC(C)(C)OC3 |
| 45 | -25.5% | CCc1ccc(-c2nc3cc(NC(=O)c4ccc(C)c(C)c4)ccc3o2)cc1 |
| 46 | 0.7% | Cc1ccc(S(=O)(=O)c2[nH]c(-c3ccccc3)nc2SCC(=O)O)cc1 |
| 47 | 1.2% | Cc1ccc(S(=O)(=O)c2c(Nc3cc(C)ccc3C)sc(C(=O)c3ccc4c(c3)OCO4)c2N)cc1 |
| 48 | -17.6% | Cc1cc(OC(C)C(=O)Nc2cccc(-c3nc4ccccc4o3)c2)cc(C)c1Cl (stereo not drawn) |
| 49 | 1.6% | Cc1ccc(Cl)cc1NS(=O)(=O)c1cc2c3c(c1)CC(=O)N3CCC2 |
| 50 | 4.1% | CCCN(CCC)c1cc(C)nc2nc(-c3ccc(C(C)(C)C)cc3)nn12 |

2 of these compounds in a different format:
cpd | compound | miR-21 reporter
29 | Cc1oc2c(cc(NS(=O)(=O)c3ccc(Cl)cc3)c3ccccc32)c1C(=O)OCc1ccccc1 | 7.6%
28 | COC(=O)c1scc(-c2ccc(C)cc2)c1S(=O)(=O)Nc1cc(C)ccc1OC | 0.3%

Returning to the listing with the five entries that preceded the break.
| no. | miR-21 reporter | compound |
| --- | --- | --- |
| 46 | 0.7% | Cc1ccc(S(=O)(=O)c2[nH]c(-c3ccccc3)nc2SCC(=O)O)cc1 |
| 47 | 1.2% | Cc1ccc(S(=O)(=O)c2c(Nc3cc(C)ccc3C)sc(C(=O)c3ccc4c(c3)OCO4)c2N)cc1 |
| 48 | -17.6% | Cc1cc(OC(C)C(=O)Nc2cccc(-c3nc4ccccc4o3)c2)cc(C)c1Cl (stereo not drawn) |
| 49 | 1.6% | Cc1ccc(Cl)cc1NS(=O)(=O)c1cc2c3c(c1)CC(=O)N3CCC2 |
| 50 | 4.1% | CCCN(CCC)c1cc(C)nc2nc(-c3ccc(C(C)(C)C)cc3)nn12 |
| 51 | 11.4% | COc1ccc(NC(=O)c2nnn(CC(=O)Nc3ccc(C)c(C)c3)c2N)cc1OC |
| 52 | -2.2% | COc1ccc(-c2cc(C(=O)Oc3ccc(C)cc3)c3cc(C)ccc3n2)cc1 |
| 53 | -19.8% | O=C(NCC(c1ccc2c(c1)OCO2)N1CCN(c2ccccc2)CC1)C(=O)Nc1ccc(F)cc1 (stereo not drawn) |
| 54 | 23.8% | CCOc1ccccc1N(C)C(=O)c1cc(S(=O)(=O)NCCc2ccc(Cl)cc2)ccc1F |
| 55 | -1.1% | Cc1ccc(NC(=O)CSc2ncc3c(n2)-c2ccc(Cl)cc2N(C)S3(=O)=O)cc1F |
| 56 | -14.0% | COc1cc(OC)cc(C(=O)Nc2ccc(-c3nc4ccccc4s3)cc2C)c1 |
| 57 | -15.1% | Cc1cc(N2CCN(C)CC2)nc2ccc(NC(=O)Nc3ccc(F)cc3)cc12 |
| 58 | -0.5% | Cc1oc(-c2cccc(Cl)c2)nc1CN1CCCC(C(=O)NCc2ccc(Cl)cc2)C1 (stereo not drawn) |
| 59 | 19.7% | O=C(c1ccc2c(c1)N(Cc1ccc(Cl)cc1)C(=O)c1ccccc1S2(=O)=O)N1CCC(Cc2ccccc2)CC1 |
| 60 | 1.8% | CCN1CCN(c2cc(C)c3cc(NC(=O)c4cccc(Cl)c4)ccc3n2)CC1 |
| 61 | -2.0% | CCOc1cc2[nH]c(=O)n(CCCCC(=O)N3CCN(c4ccccc4OC)CC3)c(=O)c2cc1OCC |
| 62 | 2.2% | COc1ccc2cc(CCNS(=O)(=O)c3ccc(C)cc3)c(=O)[nH]c2c1 |
| 63 | -14.8% | COc1ccc(Br)cc1CNC(=O)CCCn1c(=O)c2cccn2c2cccnc21 |
| 64 | 2.1% | Cc1ccccc1CN1C(=O)c2ccccc2Sc2ccc(C(=O)NC3CCCC3)cc21 |
| 65 | -8.3% | COc1ccc(C2=NN(CC(=O)NCc3ccccc3Cl)C(=O)CC2)cc1 |
| 66 | -3.1% | CCN1C(=O)C2(c3ccccc31)c1c(oc3ccc(F)cc3c1=O)C(=O)N2CCCOC (stereo not drawn) |
| 67 | -19.4% | CCCN(C(=O)c1ccc2c(=O)n3c(nc2c1)CCCCC3)c1cccc(Cl)c1 |
| 68 | -40.8% | Cc1ccc2nc(-c3ccc(Cl)s3)c(Nc3ccc4c(c3)OCCO4)n2c1 |
| 69 | 10.5% | CC(C)(C)c1ccc(C2=NC(C)(C)N(CC(=O)Nc3ccc(F)c(F)c3)C2=O)cc1 |
| 70 | -0.1% | CCN(CC)C(=O)c1sc(NC(=O)c2nc3ncccn3n2)c(C(=O)OC)c1C |
| 71 | -0.2% | CCOc1ccccc1NC(=O)CN(C)S(=O)(=O)c1ccc2nc(C)sc2c1 |
| 72 | ? | Cc1nc2nc(SCC(=O)NCc3ccccc3)nn2c(C)c1Cc1ccccc1 |
| 73 | -1.5% | CCN(CC)C(=O)C1CCN(c2cc(C)nc3c(-c4ccc(OC)c(OC)c4)c(C)nn23)CC1 |
| 74 | 8.0% | COc1ccccc1NC(=O)CSc1ncc2c(n1)-c1ccccc1N(Cc1ccccc1C)S2(=O)=O |
| 75 | -3.6% | COc1ccc(C(CNC(=O)Cc2ccc(Cl)cc2)N2CCOCC2)cc1 (stereo not drawn) |
| 76 | -1.4% | COc1ccc(NC(c2nnc(-c3ccccc3)o2)c2ccccc2F)cc1Cl (stereo not drawn) |
| 77 | 0.1% | Cc1ccc(C)c(NC(=O)Cn2cc(S(=O)(=O)NC(C)C)c(S(=O)(=O)NC(C)C)c2)c1 |
| 78 | 16.7% | Cc1ccc(O)c(-c2n[nH]c3c2C(c2ccccc2F)N(Cc2ccco2)C3=O)c1 (stereo not drawn) |
| 79 | 15.2% | CCS(=O)(=O)N1CCc2cc(C(=O)Nc3cccc(NC(C)=O)c3)ccc21 |
| 80 | -2.9% | O=C(Nc1ccc(C(=O)OCc2cc(=O)n3ccsc3n2)cc1)c1cccc(F)c1 |
| 81 | ? | COc1ccc(NC(=O)c2c(C)oc3ccc(O)c(CN4CCCCCC4)c23)cc1 |
| 82 | -37.9% | O=C(/C=C/c1ccc(Cl)cc1)N1CCC(c2nc3ccccc3o2)CC1 |
| 83 | 29.8% | O=C(CN(c1cccc(Br)c1)S(=O)(=O)c1ccccc1)N1CCc2ccccc2C1 |
| 84 | -1.7% | CCOC(=O)c1cnc2cc(C(F)(F)F)ccc2c1Nc1cc(C)ccc1OC |
| 85 | -13.5% | CCOC(=O)c1cc(OC(=O)c2ccc(C)cc2)n(-c2ccccc2)n1 |
| 86 | 2.3% | CC1CCN(c2ccc(-c3cccc(NS(=O)(=O)c4ccc(F)cc4F)c3)nn2)CC1 |
| 87 | 1.1% | CCOc1ccccc1N(C)C(=O)c1cc2c(s1)-c1ccccc1OC2 |
| 88 | 24.9% | CCCCOc1ccc(CNC(=O)c2cccc(NC(=O)N3CCSc4ncccc43)c2)cc1 |
| 89 | -17.6%[7.66 µM] | COc1ccc([C@]23Cc4cc(OC)c(OC)cc4C(O2)c2c(cc(C)oc2=O)O3)cc1 |
| 90 | -5.2% | COc1ccc(C(=O)c2oc3ccccc3c2NC(=O)COc2ccc(C)cc2)cc1 |
| 91 | 19.4% | CCc1ccc(CNC(=O)c2ccc(CS(=O)(=O)Cc3cccc(C)c3)o2)cc1 |

Source: PubChem (National Center for Advancing Translational Sciences (NCATS))

An excerpt. The share of hits here may be higher or lower than overall.
